CBX7 inh: CBX7 inhibition, primary AlphaScreen; AID 1224903; hit rate 1.1% among 66,000; O95931; normalised signal (fraction of DMSO) (no concentration beside the values); AlphaScreen His6-CBX7 / biotin-H3K27me3 peptide binding; stronger effect = lower value; in the data active = normalised signal below about 0.5;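 note: 100 nL library stock added to about 20 µL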
Target sequence (O95931 whole entry, looked up): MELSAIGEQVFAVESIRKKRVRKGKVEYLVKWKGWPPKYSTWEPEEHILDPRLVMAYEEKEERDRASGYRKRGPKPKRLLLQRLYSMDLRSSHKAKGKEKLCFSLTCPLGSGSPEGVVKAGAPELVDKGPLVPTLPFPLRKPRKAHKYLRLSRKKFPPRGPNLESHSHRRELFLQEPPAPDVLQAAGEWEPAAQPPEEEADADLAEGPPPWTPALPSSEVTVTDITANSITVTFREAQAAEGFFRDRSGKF
CBX7 inh z-score: recorded beside CBX7 inh, whose call it bears; z-score; measured here: z-score of CBX7 signal; some inactives read as strong as hits; reference of the scale not given here;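 same signal on another scale; lower means less binding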
Active calls of the source: *. The list is partial; rates above refer to the full screens.

#1 COc1cc(C(=O)N(c2ccccn2)C2CCCCC2)cc(OC)c1OC
#2 O=C(CCc1nc(-c2ccccc2F)no1)N1CCN(C2CCCCC2)CC1
#3 Cc1cccc(N(C)C(=O)Cn2nc(Cc3cccnc3)c3ccccc3c2=O)c1
#4 Cc1ccccc1Nc1c(-c2ccc(Cl)cc2)nc2ncccn12
#5 CCN(CC)S(=O)(=O)c1ccc2c(c1)N(CC(=O)N(CCc1ccncc1)C(C)C)C(=O)CO2
#6 O=C(COc1ccc(Cl)cc1)NCc1nnc(SCC(=O)NCc2ccc(F)cc2)o1

| screen / no. | 1 | 2 | 3 | 4 | 5 | 6 |
| --- | --- | --- | --- | --- | --- | --- |
| CBX7 inh | 1.1 | 1 | 0.97 | 1.2 | 0.96 | 0.98 |
| CBX7 inh z-score | 1 | 0.26 | -1.1 | 0.16 | -1.9 | -0.38 |

#7 CCCCN(CC)CCCNC(=O)c1cc(Nc2ccc(OC)cc2OC)nc2ccccc12
#8 O=C(O)C1CCN(C2CC(=O)N(c3cccc(Br)c3)C2=O)CC1 (stereo not given)
#9 O=C(Nc1ccc(Cl)cc1F)C1CCCN(S(=O)(=O)c2cccc3cccnc23)C1 (stereo not given)
#10 CCCc1nnc(NC(=O)CC(NC(=O)C(F)(F)F)c2ccccc2)s1 (stereo not given)
#11 Cc1ccc(CSc2nc3ccncc3n2CC(=O)Nc2cccc(Cl)c2C)cc1
#12 CCN(CC)CCNC(=O)c1ccc2c(c1)NC(=O)C1CCCN21 (stereo not given)

| screen / no. | 7 | 8 | 9 | 10 | 11 | 12 |
| --- | --- | --- | --- | --- | --- | --- |
| CBX7 inh | 0.66 | 0.87 | 1 | 1.3 | 1.1 | 1.1 |
| CBX7 inh z-score | -5.1 | -2.1 | 0.76 | 2.5 | 1.9 | 0.44 |

#13 CCc1nnc(NC(=O)COc2ccccc2C(C)(C)C)s1
#14 Cc1ccc(CCNC(=O)c2ccc(CNS(=O)(=O)c3ccccc3)cc2)cc1
#15 O=C(CCNC(=O)Cn1ccc2ccccc2c1=O)NCC1CCCO1 (stereo not given)
#16 COc1ccc(N2C(=O)CC(NCc3ccc(OC)c(OC)c3)C2=O)cc1 (stereo not given)
#17 COc1ccccc1C(=O)N1CC(=O)Nc2ccc(F)cc2C1c1ccccc1 (stereo not given)
#18 COc1ccccc1/C=C/c1nc(-c2ccc(OCC(N)=O)cc2)no1

| screen / no. | 13 | 14 | 15 | 16 | 17 | 18 |
| --- | --- | --- | --- | --- | --- | --- |
| CBX7 inh | 1 | 1 | 1.1 | 1 | 1.1 | 1 |
| CBX7 inh z-score | 0.054 | 0.056 | 3.6 | 0.81 | 0.37 | 0.2 |

#19 CCOc1ccc(NC(=O)c2c(NCc3cccs3)sc3c2CCC3)cc1
#20 CCOC(=O)c1c(C)n(-c2ccc(Cl)cc2)c2ccc(O)cc12
#21 CCC1=Nc2cc(C(=O)NC(C)c3ccccc3)ccc2Sc2ccc(Br)cc21 (stereo not given)
#22 CCOc1ccc(-c2cc(CCCC(=O)NCCC(C)C)no2)cc1
#23 O=C(CCc1nc(-c2cccs2)no1)NCc1ccc(F)cc1Cl
#24 COc1cc(OC)cc(C(=O)NCC23C=CC(O2)C2C(=O)N(Cc4ccccc4)C(=O)C23)c1 (stereo not given)

| screen / no. | 19 | 20 | 21 | 22 | 23 | 24 |
| --- | --- | --- | --- | --- | --- | --- |
| CBX7 inh | 0.9 | 0.89 | 0.96 | 1.5 | 1 | 1.2 |
| CBX7 inh z-score | -5.4 | -1.5 | -2 | 2.3 | 0.42 | 1.1 |

#25 O=C(NC1CCCCCC1)C1=CCN(S(=O)(=O)c2ccc(Br)cc2)CC1
#26 CCc1ccc(-c2nc(CSCC(=O)NCc3ccc(C)cc3)c(C)o2)cc1
#27 COc1cccc(-c2nc(CS(=O)(=O)CC(=O)NCCc3ccc(OC)cc3OC)c(C)o2)c1
#28 Cc1cccc(Cc2c(C)nc3c(C(=O)O)c[nH]n3c2=O)c1
#29 COc1ccccc1NC(=O)Cn1cc(S(=O)(=O)c2ccccc2)c(=O)c2cc(Cl)ccc21
#30 CC(=O)Nc1nc(C)c(-c2cn3cccnc3n2)s1

| screen / no. | 25 | 26 | 27 | 28 | 29 | 30 |
| --- | --- | --- | --- | --- | --- | --- |
| CBX7 inh | 1 | 1.1 | 1.1 | 1.2 | 0.8 | 1.1 |
| CBX7 inh z-score | 1.3 | 0.48 | 0.43 | 0.22 | -3.3 | 0.96 |

#31 CCC(C)NC(=O)c1cc2sc(Cl)cc2n1CC (stereo not given)
#32 Cc1ccc(S(=O)(=O)c2cn(CC(=O)Nc3ccc4c(c3)OCO4)c3ccc(C)cc3c2=O)cc1
#33 CCN(CC)c1ncnc2sc(C(=O)Nc3ccc4c(c3)OCO4)c(C)c12
#34 COc1cccc(NC(=O)CSc2nnc(Cc3cccn3C)n2-c2ccc(C)cc2)c1
#35 COc1ccc(-c2cc3nc(C)c(CCC(=O)NCc4ccc5c(c4)OCO5)c(C)n3n2)c(OC)c1
#36 Nc1ccc2c(c1)Nc1ccccc1CC2

| screen / no. | 31 | 32 | 33 | 34 | 35 | 36 |
| --- | --- | --- | --- | --- | --- | --- |
| CBX7 inh | 1 | 0.91 | 0.95 | 0.82 | 0.99 | 0.82 |
| CBX7 inh z-score | 1.9 | -1.3 | -1.2 | -4.4 | -0.17 | -5.3 |

#37 CC1CCCCN1CCCNC(=O)C1CCC(=O)N1C1CCCC1 (stereo not given)
#38 Cc1cc(C)c(S(=O)(=O)Nc2cccc3cccnc23)c(C)c1
#39 CCN(CC)S(=O)(=O)c1ccc2c(c1)N(CC(=O)NC1CCCCC1C)C(=O)CS2 (stereo not given)
#40 CCC1=Nc2cc(C(=O)N3CCCCC3)ccc2Sc2ccccc21
#41 CCc1cccc(C)c1NC(=O)C1CCN(c2nn3c(=O)cc(C)nc3s2)CC1
#42 COc1cc2c(C(=O)Nc3ccc4c(c3)OCO4)cn(CC(C)C)c(=O)c2cc1OC

| screen / no. | 37 | 38 | 39 | 40 | 41 | 42 |
| --- | --- | --- | --- | --- | --- | --- |
| CBX7 inh | 1 | 1.3 | 1 | 0.96 | 1.1 | 0.98 |
| CBX7 inh z-score | 1.6 | 2.7 | 0.97 | -0.47 | 1.4 | -0.86 |

#43 Cc1ccc2nc(-c3ccc(O)cc3)c(Nc3ccc4c(c3)OCCO4)n2c1
#44 CCCC1COC(Cn2cncn2)(c2ccc(Br)cc2)O1 (stereo not given)
#45 CCOc1ccc(-c2csc(NC(=O)c3ccc(S(=O)(=O)N4CC(C)OC(C)C4)cc3)n2)cc1 (stereo not given)
#46 COc1ccc(-c2noc(-c3ccc(C(C)(C)C)cc3)n2)cc1OC
#47 CCC1CCCCN1CCCNC(=O)c1ccc2c(c1)N=C(C)c1cc(Cl)ccc1S2 (stereo not given)
#48 O=C(NC1CCN(Cc2ccccc2)CC1)[C@H](CSCc1ccccc1)N1Cc2ccccc2C1=O

| screen / no. | 43 | 44 | 45 | 46 | 47 | 48 |
| --- | --- | --- | --- | --- | --- | --- |
| CBX7 inh | 0.95 | 0.97 | 1.1 | 1.4 | 0.81 | 1.1 |
| CBX7 inh z-score | -1.8 | -0.46 | 2 | 12 | -3.1 | 1.3 |

A different layout for four compounds above:
44) CCCC1COC(Cn2cncn2)(c2ccc(Br)cc2)O1 (stereo not given)
  CBX7 inh: 0.97
  CBX7 inh z-score: -0.46

45) CCOc1ccc(-c2csc(NC(=O)c3ccc(S(=O)(=O)N4CC(C)OC(C)C4)cc3)n2)cc1 (stereo not given)
  CBX7 inh: 1.1
  CBX7 inh z-score: 2

46) COc1ccc(-c2noc(-c3ccc(C(C)(C)C)cc3)n2)cc1OC
  CBX7 inh: 1.4
  CBX7 inh z-score: 12

47) CCC1CCCCN1CCCNC(=O)c1ccc2c(c1)N=C(C)c1cc(Cl)ccc1S2 (stereo not given)
  CBX7 inh: 0.81
  CBX7 inh z-score: -3.1

Reformatted as tab-separated lines: entries from further up
cpd	Compound	CBX7 inh	CBX7 inh z-score
45	CCOc1ccc(-c2csc(NC(=O)c3ccc(S(=O)(=O)N4CC(C)OC(C)C4)cc3)n2)cc1 (stereo not given)	1.1	2
46	COc1ccc(-c2noc(-c3ccc(C(C)(C)C)cc3)n2)cc1OC	1.4	12

(continued)
#49 Nc1ccc2nn(-c3ccccc3)nc2c1
#50 Cc1oc(-c2cccc(Cl)c2)nc1Cn1c(SCc2cccc(F)c2)nc2ccncc21
#51 CCCCCCCc1c(O)nc(SCCN(CCC)CCC)[nH]c1=O
#52 COc1ccc(-c2cn3c(C)c(C(=O)Nc4ccc(OC)cc4OC)sc3n2)cc1
#53 COC(=O)c1c(NC(=O)c2ccc(Cl)cc2)sc2c1CCCC2
#54 COCCCNC(=O)c1ccc2c(c1)N(Cc1ccccc1F)C(=O)c1ccccc1S2=O (stereo not given)

| screen / no. | 49 | 50 | 51 | 52 | 53 | 54 |
| --- | --- | --- | --- | --- | --- | --- |
| CBX7 inh | 1.1 | 0.98 | 1 | 0.91 | 1.4 | 1.1 |
| CBX7 inh z-score | 0.73 | -0.76 | 0.99 | -1.5 | 1.6 | 2 |

#55 CC(NC(=O)c1cc2c(s1)CS(=O)(=O)C2)C12CC3CC(CC(C3)C1)C2 (stereo not given)
#56 CC(C)C(C(=O)Nc1ccc(C(N)=O)cc1)N1C(=O)c2ccccc2C1=O (stereo not given)
#57 O=C(NCc1ccccc1Cl)C1CCN(S(=O)(=O)c2ccccc2)CC1
#58 CCOC(=O)N1CCN(c2c(NCCCN(CC)c3cccc(C)c3)c(=O)c2=O)CC1
#59 COc1ccc(C(=O)Nc2c3c(nn2-c2ccc(OC)cc2)CSC3)cc1
#60 Cc1nn(Cc2c(Cl)cccc2Cl)c(C)c1NC(=O)c1cc(-c2ccc(F)cc2)on1

| screen / no. | 55 | 56 | 57 | 58 | 59 | 60 |
| --- | --- | --- | --- | --- | --- | --- |
| CBX7 inh | 1 | 1.1 | 0.91 | 1.1 | 0.91 | 1 |
| CBX7 inh z-score | 0.34 | 1.4 | -1.7 | 1 | -2.1 | 1 |

#61 CCC(=O)NCCCc1nc2ccccc2n1CC
#62 Nc1nc(-c2ccc(Cl)cc2Cl)c(-n2cncn2)s1
#63 COc1ccc(NC(=O)C(NS(=O)(=O)c2cccs2)C(C)C)cc1 (stereo not given)
#64 COc1ccc(Br)cc1CNC(=O)Cc1c(C(=O)O)[nH]c2ccc(Cl)cc12

| screen / no. | 61 | 62 | 63 | 64 |
| --- | --- | --- | --- | --- |
| CBX7 inh | 1.1 | 1.1 | 0.99 | 1.3 |
| CBX7 inh z-score | 1.6 | 1.8 | -0.14 | 3.3 |
